Source: PubChem BioAssay (several laboratories)
Mtb H37Rv: M. tuberculosis H37Rv growth inhibitors, H37Rv strain (AID 1626) | M. tuberculosis H37Rv growth inhibition; higher % means a stronger effect | one-dose inhibition, % at 10 µM; IC50 in µM for titrated hits | actives 0.95% (n = 220,000);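 active = confirmed in a dose series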;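 note: bacteria incubated seven days before Alamar blue readout; 0% = bacteria only wells and 100% = bacteria with antibiotic wells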
RecA intein inh: blocks M. tuberculosis RecA intein splicing; actives 0.75% (n = 290,000); AID 2221; P9WHJ3; cell-free RecA intein splicing, fluorescence; inhibition, %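 (about 9 µM by stock and volumes)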; in the data active = inhibition above about 30%;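 note: 0% = vehicle wells and 100% = reference inhibitor control wells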
Target sequence (P9WHJ3 whole entry, looked up): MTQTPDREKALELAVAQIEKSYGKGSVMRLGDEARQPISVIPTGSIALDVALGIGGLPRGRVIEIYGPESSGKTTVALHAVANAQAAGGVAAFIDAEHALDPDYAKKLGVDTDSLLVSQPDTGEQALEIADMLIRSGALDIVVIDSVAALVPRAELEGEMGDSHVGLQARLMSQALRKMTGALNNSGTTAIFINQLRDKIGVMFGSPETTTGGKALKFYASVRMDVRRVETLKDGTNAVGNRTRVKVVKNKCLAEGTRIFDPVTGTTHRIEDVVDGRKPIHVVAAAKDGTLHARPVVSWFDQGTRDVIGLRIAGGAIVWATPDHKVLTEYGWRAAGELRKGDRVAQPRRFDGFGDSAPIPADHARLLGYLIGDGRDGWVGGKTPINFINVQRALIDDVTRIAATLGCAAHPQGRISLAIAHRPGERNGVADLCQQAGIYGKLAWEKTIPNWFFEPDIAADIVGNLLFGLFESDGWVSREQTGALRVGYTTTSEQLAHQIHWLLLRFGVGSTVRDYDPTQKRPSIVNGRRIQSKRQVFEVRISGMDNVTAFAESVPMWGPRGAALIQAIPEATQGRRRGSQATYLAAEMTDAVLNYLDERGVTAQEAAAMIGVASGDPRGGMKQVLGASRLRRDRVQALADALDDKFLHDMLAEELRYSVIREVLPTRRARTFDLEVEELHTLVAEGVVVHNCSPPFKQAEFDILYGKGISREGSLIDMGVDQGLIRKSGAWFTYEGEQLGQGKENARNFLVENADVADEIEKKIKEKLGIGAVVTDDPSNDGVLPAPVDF
YopH PTP inh: YopH (Yersinia) phosphatase inhibition | fluorescence Ex485/Em525 | inhibition, %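 (about 10 µM by stock and volumes)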 | actives 0.16% (n = 140,000);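 active = inhibition of 50% or more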;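 note: controls were vehicle for no effect and minimum signal wells for full effect; inactives centre near -20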
Arbovirus anti: arbovirus infection inhibition; arbovirus infection cell-based antiviral screen; actives 0.37% (n = 200,000); inhibition, % at 10 µM;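 active = inhibition from about 30%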;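 note: bluetongue infection of BSR cells; cell survival read as ATP light after 72 h; 0% = infected wells without compound and 100% = uninfected wells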
Mtb bLac sens: beta-lactam sensitization of Mtb H37Rv | M. tuberculosis H37Rv growth with meropenem, percent inhibition; hits of this screen are not shown here | inhibition, % at 25 µM | actives 0.27% (n = 330,000);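 active = about 74% or more and at least 40 points above the plate without the antibiotic, then above 30% in a dose series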;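 note: growth measured after seven days incubation then overnight dye step; 0% = bacteria only wells and 100% = bacteria with antibiotic; twin plates without the antibiotic show which effects depend on it; some results filed as inactive read as strong as hits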
Arbovirus anti repeat: also measured in Arbovirus anti; calls as there; inhibition, %; measured here: 10K subset replicate screen; many hits read low in the repeat;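 first of two repeat runs on a subset; 0% = infected and 100% = uninfected wells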
An asterisk follows results filed as active; & = joins results of further samples. These rows are one share of the data, so the mix of outcomes need not match the whole.

What do the screens show for `Cc1cnc([N+](=O)[O-])n1CCOC(=O)NC(=O)c1ccccc1`?
Mtb H37Rv: 3%; RecA intein inh: 0.0; Arbovirus anti: 4; Mtb bLac sens: -2

Results for O=C(NCc1ccco1)c1nc2c(nnn2Cc2ccccc2Cl)c(=O)[nH]1 ?
Mtb H37Rv: 4%; RecA intein inh: 0.6; YopH PTP inh: -18; Arbovirus anti: 0; Mtb bLac sens: 1

Results for COCn1cnc(-c2ccccc2)c1-c1ccccc1 ?
RecA intein inh: 2.4; Mtb bLac sens: -4

How did CCOC(=O)CCC(=O)N1CCOCCOCCOCC1 do in these assays?
Mtb H37Rv: 0%; RecA intein inh: 2.1; YopH PTP inh: -7; Arbovirus anti: 8; Mtb bLac sens: 8

Results for O=C(c1ccccc1)n1c(=S)nc2ccccn21 ?
Mtb H37Rv: -9%; RecA intein inh: 0.4; Mtb bLac sens: -13

How did O=C(Nc1nc2c(F)cc(F)cc2s1)C1CC1 do in these assays?
RecA intein inh: -4.7; Mtb bLac sens: 5

Results for CN(Cc1ccccc1)C(=O)c1[nH]cnc1C(=O)NCC(=O)OCc1ccccc1 ?
RecA intein inh: 0.5; Mtb bLac sens: -6

What do the screens show for `O=C(CCc1ccccc1F)N1CCN(c2ccc(C(F)(F)F)cn2)CC1`?
RecA intein inh: 6.6; Mtb bLac sens: 5

How did COC(=O)c1ccccc1NC(=O)C(C)c1ccc([N+](=O)[O-])cc1 (stereo not drawn) do in these assays?
Mtb H37Rv: 8%; RecA intein inh: 1.3; Arbovirus anti: 5; Mtb bLac sens: 5

Results for CCC(C(=O)Nc1cc(F)ccc1F)n1nc(C)c2c(C)n(-c3ccc(C)cc3)nc2c1=O (stereo not drawn) ?
RecA intein inh: 11; Mtb bLac sens: -2

What do the screens show for `Cc1ccc(-n2nnnc2SCC(=O)c2cc(C)n(CC3CCCO3)c2C)cc1` (stereo not drawn)?
Mtb H37Rv: -2%; RecA intein inh: 0.6; Arbovirus anti: 6; Mtb bLac sens: -2

How did O=C(Nc1ccc(Cl)cc1N1CCOCC1)C1CC1 do in these assays?
RecA intein inh: 0.4; Mtb bLac sens: -2

How did O=C(N/N=C/c1ccncc1)NC1CCCCC1 do in these assays?
Mtb H37Rv: 6%; RecA intein inh: -2.4; Arbovirus anti: 4; Mtb bLac sens: 2

How did COc1ccc2nc(NC(=O)CSc3nnc(C)n3N)sc2c1 do in these assays?
Mtb H37Rv: 3%; RecA intein inh: 1.5; Mtb bLac sens: -3

Results for Cc1ccc(C)c(Cc2c(C)nc3c(C(=O)N4CCOCC4)cnn3c2C)c1 ?
Mtb H37Rv: -4%; RecA intein inh: 2.9; YopH PTP inh: -28; Arbovirus anti: -6; Mtb bLac sens: -14

What do the screens show for `O=C1CCCN1CC(O)CS(=O)(=O)Cc1ccc(Cl)cc1` (stereo not drawn)?
RecA intein inh: -2.3; Mtb bLac sens: -4

Results for CCCCn1c(N)c(N(CC(C)C)C(=O)COC(=O)C2(c3ccccc3)CC2)c(=O)[nH]c1=O ?
RecA intein inh: -3.3; Mtb bLac sens: -1

What do the screens show for `CCN1C(=O)/C(=C/c2ccc(N(CC)CC)cc2OC)C(=O)NC1=S`?
Mtb H37Rv: 27%; RecA intein inh: 0.1; Arbovirus anti: -3; Mtb bLac sens: 7

What do the screens show for `CCOC(=O)c1c(C)nc2sc(C(=O)Nc3ccc(OC)cc3)c(N)c2c1-c1ccc(OC)cc1`?
Mtb H37Rv: 4%; RecA intein inh: -53; YopH PTP inh: -29; Arbovirus anti: -12; Mtb bLac sens: -11

Results for O=C(Nc1nc(-c2ccccn2)cs1)c1cc(Cl)ccc1[N+](=O)[O-] ?
Mtb H37Rv: 0.87µM*; RecA intein inh: 0.2; Arbovirus anti: -24; Mtb bLac sens: 89

What do the screens show for `CCS(=O)(=O)N1CCN(c2cnn(-c3ccccc3)c(=O)c2Cl)CC1`?
Mtb H37Rv: 4%; RecA intein inh: -1.8; Arbovirus anti: 4; Mtb bLac sens: -2

What do the screens show for `O=C(COC(=O)CNC(=O)c1cccs1)Nc1ccc(C(F)(F)F)cc1[N+](=O)[O-]`?
RecA intein inh: 1.1; Mtb bLac sens: -3

What do the screens show for `CCCCCCCCCCCCCCCCn1cc[n+](C)c1`?
Mtb H37Rv: 7%&10%; RecA intein inh: 48*; Arbovirus anti: -25; Mtb bLac sens: 95&93

Results for Cc1ccc(C)c(OCCC(=O)NCCc2ccc(S(N)(=O)=O)cc2)c1 ?
RecA intein inh: 0.6; Mtb bLac sens: -8

What do the screens show for `O=C(NCCCc1ccccc1)C1CCC(=O)N(Cc2ccc(Cl)cc2)C1` (stereo not drawn)?
RecA intein inh: 2.3; Mtb bLac sens: 1

Results for COc1ccc(NC(=O)CN(C)C(=O)c2ccc(C)s2)cc1 ?
Mtb H37Rv: -11%; RecA intein inh: -2.1; YopH PTP inh: -142; Arbovirus anti: 8; Mtb bLac sens: 2

Results for Cc1nn(-c2ccccc2)c2c1C(c1ccc([N+](=O)[O-])cc1)C(C#N)=C(N)O2 (stereo not drawn) ?
Mtb H37Rv: -10%; RecA intein inh: -2.4; Mtb bLac sens: -1

How did CC(C)(C)c1cc(-c2ccccc2)n[nH]1 do in these assays?
Mtb H37Rv: 3%; RecA intein inh: 1.5; Mtb bLac sens: 7

Results for O=C(C1=C[C@H](C2CC2)C[C@H](OCc2ccc(CO)cc2)O1)N1CCN(Cc2ccc3c(c2)OCO3)CC1 ?
Mtb H37Rv: -4%; RecA intein inh: 2.1; Arbovirus anti: -2; Mtb bLac sens: 1

What do the screens show for `Cc1ccc(NC(=O)Nc2ccccc2CC[N+](=O)[O-])cc1`?
Mtb H37Rv: 0%; RecA intein inh: -1.6; Arbovirus anti: 26; Mtb bLac sens: -3

What do the screens show for `O=C(NN=C1CCCC1)c1cc(Br)ccc1O`?
RecA intein inh: 0.2; Mtb bLac sens: 7

Results for COc1cc(C(=O)OCC(=O)N(C)c2ccccc2)cc(OC)c1OC ?
RecA intein inh: 0.0; Mtb bLac sens: 0

How did COc1ccc(S(=O)(=O)N(C)CC(=O)Nc2cccc(C(C)=O)c2)cc1Cl do in these assays?
Mtb H37Rv: -5%; RecA intein inh: -1.0; YopH PTP inh: -24; Arbovirus anti: 4; Mtb bLac sens: -13

Results for COc1ccc(/C=C/C(=O)N(C)c2ccccc2C(=O)O)cc1 ?
Mtb H37Rv: -7%; RecA intein inh: 0.4; Arbovirus anti: -3; Mtb bLac sens: -7

What do the screens show for `CS(=O)(=O)N(CC(=O)NCc1ccc(Cl)cc1)C1CCCCC1`?
Mtb H37Rv: -4%; RecA intein inh: 0.5; YopH PTP inh: -32; Arbovirus anti: -2; Mtb bLac sens: 1

How did Cc1ccc2nc(SCC(=O)NCc3ccco3)[nH]c2c1 do in these assays?
RecA intein inh: 1.7; YopH PTP inh: -18; Arbovirus anti: 0; Mtb bLac sens: -6

What do the screens show for `CCN(CCCNC(=O)Cn1ncc2c([nH]c3ccccc32)c1=O)Cc1ccccc1`?
RecA intein inh: 5.5; Mtb bLac sens: 1

Results for CC(C)(C)OC(=O)NC1CCN(S(=O)(=O)c2ccc3c(c2)OCCO3)CC1 ?
RecA intein inh: 1.1; Mtb bLac sens: -1

How did COc1ccc([N+](=O)[O-])cc1NCc1ccccc1C do in these assays?
Mtb H37Rv: -13%; RecA intein inh: 1.2; YopH PTP inh: 0; Arbovirus anti: -4; Mtb bLac sens: 1

What do the screens show for `CCCS(=O)(=O)Nc1cccc(-c2nc3cccnc3s2)c1`?
Mtb H37Rv: 8%; RecA intein inh: -2.5; Mtb bLac sens: 2

Quoted at random: three records from the list.
What do the screens show for `CCCS(=O)(=O)Nc1cccc(-c2nc3cccnc3s2)c1`?
Mtb H37Rv: 8%; RecA intein inh: -2.5; Mtb bLac sens: 2

Results for Cc1ccc(C)c(OCCC(=O)NCCc2ccc(S(N)(=O)=O)cc2)c1 ?
RecA intein inh: 0.6; Mtb bLac sens: -8

What do the screens show for `CCN(CCCNC(=O)Cn1ncc2c([nH]c3ccccc32)c1=O)Cc1ccccc1`?
RecA intein inh: 5.5; Mtb bLac sens: 1

Additional entries follow:
How did Cc1cc(C)n(C(CC(=O)O)C(=O)O)n1 (stereo not drawn) do in these assays?
Mtb H37Rv: -2%; RecA intein inh: -1.7; YopH PTP inh: -32; Arbovirus anti: 6; Mtb bLac sens: 5

What do the screens show for `COc1ccc(C(C)=O)cc1COC(=O)c1cnc(C)cn1`?
Mtb H37Rv: 3%; RecA intein inh: -1.6; YopH PTP inh: -15; Arbovirus anti: 0; Mtb bLac sens: -10

How did C=C(C)CSc1nnc(CCNC(=O)OC(C)(C)C)o1 do in these assays?
Mtb H37Rv: 7%; RecA intein inh: -1.7; YopH PTP inh: -22; Arbovirus anti: 10; Mtb bLac sens: -2

Results for COC(=O)c1nn(-c2ccc(Oc3ccccc3)cc2)c(=O)cc1O ?
Mtb H37Rv: -5%; RecA intein inh: 0.4; Arbovirus anti: 15; Mtb bLac sens: -6

How did COc1ccccc1-n1c(O)c(C=NC2CC2)c(=O)[nH]c1=O do in these assays?
Mtb H37Rv: -3%; RecA intein inh: 3.6; YopH PTP inh: -12; Arbovirus anti: 5; Mtb bLac sens: 6

Results for CCCC(=O)c1c(O)[nH]c(=O)[nH]c1=O ?
Mtb H37Rv: 0%; RecA intein inh: 1.3; YopH PTP inh: -24; Arbovirus anti: 7; Mtb bLac sens: -4

How did Cc1ccc(-n2nnnc2SCC(=O)NC2CC2)cc1C do in these assays?
RecA intein inh: 2.2; Mtb bLac sens: 3

What do the screens show for `O=C(Nc1cc2c(cc1Br)OCCCO2)c1ccccc1`?
Mtb H37Rv: 9%; RecA intein inh: 0.8; YopH PTP inh: -24; Arbovirus anti: -1; Mtb bLac sens: -5

Results for Nn1c(=O)[nH]c2ccccc2c1=O ?
Mtb H37Rv: -6%; RecA intein inh: -0.9; Arbovirus anti: 3; Mtb bLac sens: -3; Arbovirus anti repeat: 6

How did COc1ccccc1OCc1nn[nH]n1 do in these assays?
RecA intein inh: 0.7; Mtb bLac sens: 0

What do the screens show for `CCCCOc1ccc(C2C(C(=O)c3ccc(C)o3)=C(O)C(=O)N2CC2CCCO2)cc1` (stereo not drawn)?
Mtb H37Rv: -4%; RecA intein inh: 4.7; YopH PTP inh: -26; Arbovirus anti: 0; Mtb bLac sens: -15

Results for COCCN1C=C2C(=O)C(C)(OC(=O)C3CCCC3)C(=O)C=C2C=C1c1ccsc1 (stereo not drawn) ?
Mtb H37Rv: -14%; RecA intein inh: 16; Mtb bLac sens: 2

What do the screens show for `CC(C)(C)c1ccc(C(=O)C2CCCN(C(=O)C3CCOCC3)C2)cc1` (stereo not drawn)?
Mtb H37Rv: -1%; RecA intein inh: 3.6; Arbovirus anti: 5; Mtb bLac sens: 2

How did Cc1ccc(C)c(OCCSc2nnc(-c3cccnc3)n2N)c1 do in these assays?
Mtb H37Rv: 5%; RecA intein inh: -2.4; YopH PTP inh: -12; Arbovirus anti: -2; Mtb bLac sens: -4

How did Cc1ccccc1Nc1scc(-c2ccc(Cl)cc2)[n+]1-c1ccccc1C do in these assays?
Mtb H37Rv: 0%; RecA intein inh: 3.2; Arbovirus anti: 9

How did CC1Cc2ccccc2N1C(=O)c1cc2c(=O)n3ccccc3nc2n1C (stereo not drawn) do in these assays?
Mtb H37Rv: -9%; RecA intein inh: -5.7; YopH PTP inh: -32; Arbovirus anti: 6; Mtb bLac sens: 5

Results for CCCCN(CCCC)NC(=O)c1ccccc1 ?
Mtb H37Rv: 0%; RecA intein inh: -0.8; Arbovirus anti: 4; Mtb bLac sens: -5

How did COc1cc(Nc2ccc(C(=O)O)cc2[N+](=O)[O-])cc(OC)c1 do in these assays?
Mtb H37Rv: 3%; RecA intein inh: -0.2; YopH PTP inh: -19; Arbovirus anti: 1; Mtb bLac sens: -2

How did CCOc1ccccc1NC(=O)Cn1c(=O)oc2ccccc21 do in these assays?
Mtb H37Rv: 7%; Arbovirus anti: 3; Mtb bLac sens: 8

What do the screens show for `O=C(Nn1c(C2CCCCC2)nc2ccccc2c1=O)c1cc(Cl)ccc1[N+](=O)[O-]`?
Mtb H37Rv: 2%; RecA intein inh: 0.1; YopH PTP inh: -27; Arbovirus anti: 5; Mtb bLac sens: 6

Some of these compounds in order of formula weight, smallest number first.
Results for CCCC(=O)c1c(O)[nH]c(=O)[nH]c1=O ?
Mtb H37Rv: 0%; RecA intein inh: 1.3; YopH PTP inh: -24; Arbovirus anti: 7; Mtb bLac sens: -4

Results for CCCCN(CCCC)NC(=O)c1ccccc1 ?
Mtb H37Rv: 0%; RecA intein inh: -0.8; Arbovirus anti: 4; Mtb bLac sens: -5

How did CCOc1ccccc1NC(=O)Cn1c(=O)oc2ccccc21 do in these assays?
Mtb H37Rv: 7%; Arbovirus anti: 3; Mtb bLac sens: 8
